gsp antag: qHTS for Antagonists of gsp, the Etiologic Mutation Responsible for Fibrous Dysplasia/McCune-Albright Syndrome: qHTS. gsp-mutant cells, cAMP HTRF, 30 min; control for the full effect not named in the record. Potency, µM (highest dose often 76.9 µM), inactives show at the top dose activity change, negative = inhibition, actives largely listed as inhibitors. 0.4% of 340,000 active. AID 624288, 2012; active = falling curve of any shape with a large fitted effect; inconclusive = falling curve, mostly with a smaller effect; inactive = flat or rising curve; cell line not stated here;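 further: intracellular cAMP measured with PDE inhibitor Ro 20-1724 present during compound exposure; potency means the concentration at half of the fitted maximal effect; on the % scale 0 is the no-effect control and ±100 the full control effect; nearly all actives have a fitted effect of over 65% in size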
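Measurement of cellular cAMP by homogeneous time-resolved fluorescence following a 30 min compound exposure at 37C. The PDE inhibitor […] was present throughout; the assay buffer was DPBS with 0.05% BSA and 0.005% Tween 20.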
Menin-MLL FL inh: qHTS Assay for Inhibitors Targeting the Menin-MLL Interaction in MLL Related Leukemias: Competition With Fluorescein Labeled MLL-derived Peptide; Fluorescence polarization, fluorescein-MLL peptide displacement from menin; FP activity change, % at 61.4 µM; 290,000 tested, under 10 active; AID 1766, 2009; inconclusive = falling polarisation curve, or a change in total fluorescence; inactive = total fluorescence flat and polarisation flat or rising; no compound was filed as active; the % refers to the polarisation; negative = inhibition;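 further: % of control where 0% means no effect; inhibitors lower the polarisation; unlabelled MLL peptide was the positive control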
Sfp inh: qHTS Assay for Inhibitors of Bacillus subtilis Sfp phosphopantetheinyl transferase (PPTase); 4'-phosphopantetheinyl transferase ffp (Bacillus subtilis), Q9F4F7; Biochemical Sfp PPTase activity, qHTS; Potency, µM, inactives show max response, negative = inhibition, hits mostly inhibitors; 3.5% of 310,000 active; AID 1490, 2009; active means well fitted inhibition curve with a large enough effect; inconclusive means small, poorly fitted or top-dose-only effect, or another doubt; inactive means no such curve, though single readings can be large or run the other way;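 further: the enzyme is Sfp with the accession as filed and its product quenches rhodamine fluorescence; potency means the concentration at half of the fitted maximal effect; 0% = enzyme reaction without inhibitor and -100% = no enzyme wells; top concentration of the series not given in the record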
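Fluorescence-quenching assay: 15 nM Sfp-PPTase preincubated 15 min at room temperature with compound, then 5 uM rhodamine-CoA and 12.5 uM BHQ-2-labelled YbbR peptide added. Fluorescence (ex 525/em 598 nm) read at start and after 30 min; difference gives rate.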
gsp agonist: qHTS for Agonist of gsp, the Etiologic Mutation Responsible for Fibrous Dysplasia/McCune-Albright Syndrome: qHTS | gsp mutant cells, cAMP HTRF, 30 min; control for the full effect not named in the record | Potency, µM (doses to about 76.9 µM), for the others: at the highest dose activation (cAMP increase), hits mostly activators | 0.13% of 340,000 active | AID 624287, 2012; active = well fitted activation curve with a large enough effect; inconclusive = small, poorly fitted or top-dose-only effect, or another doubt; inactive = no such curve, though single readings can be large or run the other way; cell line not stated here;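 further: phosphodiesterase inhibitor Ro 20-1724 added with compounds to block cAMP breakdown; potency means the concentration at half of the fitted maximal effect; nearly all actives have a fitted effect of over 60% in size; about a fifth of the inactives were tested at one dose only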
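Cells in DMEM/10% FBS with G418 were pretreated with compounds in DMSO plus […] (300 uM stock) for 30 min at 37C. cAMP was measured by HTRF (cAMP-d2 plus anti-cAMP antibody-K) after 30 min at room temperature.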
ClpP mod: qHTS Assay for Activators of ClpP. ATP-dependent Clp protease proteolytic subunit (Bacillus subtilis (strain 168)), P80244. purified B. subtilis ClpP, FRET peptide cleavage, 20 min. Potency, µM (series often up to 57.5 µM), inactives show top-dose activity change, negative = active. 1.9% of 340,000 active. AID 651965, 2013; active = well fitted falling curve with a large enough effect; inconclusive = small, poorly fitted or top-dose-only effect; inactive = no such curve, though single readings can be large or run the other way; further: potency means the concentration at half of the fitted maximal effect; the source files actives as falling curves though it sought activators and does not explain the sign; nearly all actives have a fitted effect of over 65% in size; many hits overshoot -100%
Target sequence (P80244 whole entry, looked up): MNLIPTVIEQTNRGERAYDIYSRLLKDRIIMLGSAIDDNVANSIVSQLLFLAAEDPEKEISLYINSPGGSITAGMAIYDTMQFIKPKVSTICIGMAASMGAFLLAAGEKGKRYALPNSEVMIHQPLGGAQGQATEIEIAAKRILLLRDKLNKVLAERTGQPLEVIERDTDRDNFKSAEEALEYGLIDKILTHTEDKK
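Purified B. subtilis ClpP, 10 microg/mL final in Tris/HCl pH8 with KCl, BSA, glycerol and Tween-20, cleaved an Abz/nitrotyrosine-quenched decapeptide. Fluorescence (ex 320, em 430) was read at 0 and 20 min at room temperature. Delta was normalized to 5.8 microM ADEP and DMSO/no-enzyme controls.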
CtBP-E1A blk: qHTS Assay for Inhibitors of the CtBP/E1A Interaction; CtBP / adenovirus E1A interaction (AlphaScreen); AlphaScreen GST-E1A/His-CtBP binding, 1536-well; hits give low values; control for the full effect not named in the record; activity change, % (no concentration beside the values); 0.49% of 340,000 active; AID 651724, 2012; in the data active means activity change below about -65%; inconclusive means about -30% to -65%; inactive means above about -30%; further: on the % scale 0 is the no-effect control and ±100 the full control effect; compound concentration not given in the record
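Homogeneous bead-based format: GST-tagged E1A captured on glutathione donor beads, His-tagged CtBP on nickel acceptor beads; compounds precede bead addition by 2 h at 37 °C.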
TRPV1 potentiator: HTS Assay for Compounds that Act as Potentiators of the Vanilloid Receptor 1 | potentiation, % at 8.33 µM | TRPV1-expressing cells, Fluo-8 calcium influx, capsaicin EC20 potentiation; host cell line not named in the record; control for the full effect not named in the record | 0.02% of 320,000 active | AID 540277, 2011; active means potentiation above 80%; inconclusive means 30% to 80%; inactive means below 30%; further: 0% is about no effect
Target sequence (Q8NER1 whole entry, looked up): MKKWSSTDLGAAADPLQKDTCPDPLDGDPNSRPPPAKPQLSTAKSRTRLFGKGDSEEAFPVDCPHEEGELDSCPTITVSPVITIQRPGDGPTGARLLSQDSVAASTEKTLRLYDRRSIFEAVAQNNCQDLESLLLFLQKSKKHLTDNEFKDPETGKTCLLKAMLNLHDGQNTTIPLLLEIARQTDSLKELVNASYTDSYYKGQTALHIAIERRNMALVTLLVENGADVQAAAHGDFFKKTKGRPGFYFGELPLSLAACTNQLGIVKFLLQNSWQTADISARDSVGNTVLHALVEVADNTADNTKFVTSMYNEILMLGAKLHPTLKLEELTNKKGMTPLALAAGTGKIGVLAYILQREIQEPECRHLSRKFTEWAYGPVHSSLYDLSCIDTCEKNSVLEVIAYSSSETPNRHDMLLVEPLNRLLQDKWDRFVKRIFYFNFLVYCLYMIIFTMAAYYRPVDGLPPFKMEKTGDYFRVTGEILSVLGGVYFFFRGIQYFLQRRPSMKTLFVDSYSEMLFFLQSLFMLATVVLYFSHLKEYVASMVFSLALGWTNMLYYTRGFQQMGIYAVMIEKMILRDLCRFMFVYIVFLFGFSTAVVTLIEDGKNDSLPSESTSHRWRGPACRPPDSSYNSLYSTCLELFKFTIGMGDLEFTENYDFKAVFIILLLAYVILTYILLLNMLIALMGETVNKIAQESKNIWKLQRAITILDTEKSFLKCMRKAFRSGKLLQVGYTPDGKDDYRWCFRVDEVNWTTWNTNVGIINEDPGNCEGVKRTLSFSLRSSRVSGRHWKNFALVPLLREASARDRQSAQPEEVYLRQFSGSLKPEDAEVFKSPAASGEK
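Fluo-8 calcium influx in TRPV1-expressing cells, kinetic read (ex 480/em 520 nm). Compound added and read 3 min for agonist activity, followed by capsaicin at EC20 final and 2 min further read for enhancement.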
* = called active by the depositor; ? = inconclusive; / = no result given; & = joins results of further samples; [ ] = remark or other dose. Compounds as they come; 5.3% or so of the library scored in one or more.

SMILES,CtBP-E1A blk,gsp agonist,gsp antag,Sfp inh,TRPV1 potentiator,ClpP mod,Menin-MLL FL inh
COc1ccc(-c2nc(-c3cccs3)c(-c3cccs3)[nH]2)cc1OC,-73*,0%,3%,17%,8,35µM*,?
Cc1ccc(S(=O)(=O)Cc2ccc(C(=O)NCc3ccc4c(c3)OCO4)o2)cc1,-2,?,-19%,-6%,2,-0.4%,5.4
O=C(O)COCC(=O)NCc1csc2ccccc12,3,-8%[15.4 µM],12%,24%,3,/,2.4
CCC(=O)NCCc1cc2ccc(C)cc2[nH]c1=O,2,2%,-5%,-5%,7,4.1%,-0.5
C=C(c1ccc(OC)cc1)c1ccc(OC)cc1,2,0%[15.4 µM],4%,-6%,2,1.1%,-0.6
O=S(=O)(NCC1CCCO1)c1ccc(Cl)c2ccccc12 (configuration not stated),0,28%,/,/,/,-3.5%,/
Cc1ccc(N2Cc3ccccc3C2=S)cc1,29,5%,-6%,12%,?,/,-0.9
O=S(=O)(c1ccccc1)c1nc(-c2cccc(Cl)c2)oc1N1CCOCC1,-14,8%,?,1%,-7,-11%&-27%,/
CC1=C(C(=O)N(C)Cc2ccccc2)C2(CCC(C)CC2)OC1=O (configuration not stated),1,-4%,0%,8%,2,0.6%,-2.5
Cc1ccc(-n2ncc3c2ncn2c(C)nnc32)cc1C,16,-32%[inhibitor],2%,8%,-22,-13%,4.1
O=[N+]([O-])c1ccccc1S(=O)(=O)N1CCN(c2ccc(F)cc2)CC1,-7,16%,-2%,-6%,-6,/,-8.4
CC(=O)Nc1ccc(S(=O)(=O)N2CCN(C(=O)Cc3ccccc3)CC2)cc1,1,13%,-6%,13%,3,-3.0%,-1.4
O=C(c1ccccc1)N1CCN(C(=S)NCc2ccc3c(c2)OCO3)CC1,/,14%,1%,-11%,3,0.6%,0.7
O=C(NC1CCCCC1)N(c1ccccc1)c1nnc(-c2cccc([N+](=O)[O-])c2)s1,-11,?,/,/,/,0.5%,/
CCC(=O)c1cn(CC(=O)Nc2ccc(C)cc2)c2ccccc12,7,10%[15.4 µM],21%,13%,-2,0.4%,3.7
CC(C(=O)N1CCOCC1)N1C(=O)C2C3CC(C(Br)C3Br)C2C1=O (configuration not stated),9,9%[15.4 µM],14%,8%,-5,0.2%,1.3
CCOC(=O)Cc1n[nH]c(=O)c2ccccc12,3,?,-1%,17%,1,/,3.7
c1cc(CN2CCN(C3CCCCCC3)CC2)ccn1,/,17%,6%,?,-11,2.0%,?
Cc1ccc(S(=O)(=O)c2nc(S(C)(=O)=O)sc2N2CCCCC2C)cc1 (configuration not stated),1,-66%[inhibitor],-11%,7%,15,0.5%,/
Cc1ccc(-n2c(O)c(/C=N/NC(=O)C3COc4ccccc4O3)c3ccccc3c2=O)cc1 (configuration not stated),-15,-23%,-19%,10%,-3,1.0%,32[activator]
O=C(C1CCN(S(=O)(=O)c2ccccc2F)CC1)N1CCN(Cc2ccc3c(c2)OCO3)CC1,-6,?,?,/,-11,-1.5%,/
C=C(C)COc1ccc(-c2nc(N)ncc2-c2ccc(Cl)cc2)c(O)c1,/,-8%,-17%,22%,9,0.6%,0.5
O=C(CSc1c2c(nc3ccc(Cl)cc13)CCCC2)NCc1ccco1,0,?,-3%,4%,-4,-0.5%,4.7
O=C(Nc1ccccc1)C1CCCN(S(=O)(=O)c2ccc(-n3cnnn3)cc2)C1 (configuration not stated),3,17%,-1%,5%,2,-3.1%,0.3
CCN(CC(=O)Nc1ccccc1C(=O)OC)S(=O)(=O)c1ccccc1,9,-19%,-7%,-12%,-9,-20%,-0.3
N#Cc1ccsc1NC(=O)CCN1CCN(C(c2ccccc2)c2ccccc2)CC1,?,-10%,-20%,6%,6,/,4.0
NS(=O)(=O)c1ccc(CCNC(=O)CCCOc2ccccc2)cc1,-20,-9%[15.4 µM],5%,6%,-4,/,-0.1
O=C(NC1(C(F)(F)F)NC(=O)N(c2ccc(F)cc2)C1=O)c1ccncc1 (configuration not stated),-2,47%,4%,-10%,26,-0.9%,9.5
O=C(O)CCn1cc(/C=C/C(=O)c2ccc(Cl)cc2)c(-c2ccc(Br)cc2)n1,3,3%,?,1%,-2,-1.1%,0.7
O=C(O)/C=C/c1ccc(S(=O)(=O)Nc2ccc(OCc3ccccc3)cc2)cc1,/,-3%,-9%,-3%,-2,2.1%,-8.7
COc1ccc(C(C)(C)C)cc1NC(=O)CCn1[nH]c(=O)ccc1=O,3,-2%,-2%,/,/,1.4%,/
CCN(c1ccccc1)S(=O)(=O)c1ccc(C(=O)Nc2ccc(C)cn2)cc1,6,6%[15.4 µM],-12%,/,-17,/,/
COC(=O)c1sccc1NC(=O)c1ccc(OC)c(OC)c1,6,?,-1%,8%,29,?,0.9
O=C(CN(Cc1ccccc1)C(=O)c1ccc2c(c1)OCCO2)NCc1ccc2c(c1)OCO2,7,-16%,-4%,-11%,-4,-0.4%,1.6
CCc1ccc(OCc2nnc(SCC(=O)N3CCN(c4ccccc4)CC3)o2)cc1,3,-39%[inhibitor],5%,11%,8,-0.6%,5.2
COc1ccc(NC(=O)C(NCC(C)C)c2ccccc2)cc1Cl (configuration not stated),2,3%[15.4 µM],6%,50µM*,5,/,-0.3
CCOC(=O)N1CCN(CCC(=O)Nc2ccc(C)cc2)CC1,5,33%,14%,13%,16,1.7%,-0.3
CCC1Oc2ccccc2N(CC(=O)NCCCN2CCC(C)CC2)C1=O (configuration not stated),11,15%,-4%,12%,7,0.9%,4.2
O=C(CNC(=O)c1ccccc1F)NCCc1ccccc1F,5,28%,16%,/,8,1.6%,/
C/C(=N\N1C(=O)CSC1=S)c1ccc(Br)cc1,?,-7%[15.4 µM],/,?,6,/,?
CCOC(=O)c1c(S(=O)(=O)NCC2CCN(Cc3cccc(F)c3)CC2)c(C)n(C)c1C,-11,?,1%,17%,1,-0.7%,0.0
Cc1cc(C)c(S(=O)(=O)Nc2cnc3ccccc3c2)c(C)c1,-8,?,-11%,9%,4,/,-0.2
NS(=O)(=O)c1cccc(NC(=O)COC(=O)CNC(=O)c2ccc(-c3ccccc3)cc2)c1,1,-26%,5%,/,4,-0.1%,/
Cc1c(C)c2c(OCC(=O)N3CCC[C@H]3C(=O)O)cc3c(c2oc1=O)CCC(C)(C)O3,?,?,2%,10%,-7,4.5%,-1.3
Cc1noc(C)c1NC(=O)Nc1ccc2c(c1)C(=O)N([C@H](C)CO)C[C@H](C)[C@@H](CN(C)S(=O)(=O)c1c(C)noc1C)O2,0,/,6%,/,/,-5.9%,/

Taken from the listing for reference:
SMILES,CtBP-E1A blk,gsp agonist,gsp antag,Sfp inh,TRPV1 potentiator,ClpP mod,Menin-MLL FL inh
COc1ccc(C(C)(C)C)cc1NC(=O)CCn1[nH]c(=O)ccc1=O,3,-2%,-2%,/,/,1.4%,/
CCN(c1ccccc1)S(=O)(=O)c1ccc(C(=O)Nc2ccc(C)cn2)cc1,6,6%[15.4 µM],-12%,/,-17,/,/
COC(=O)c1sccc1NC(=O)c1ccc(OC)c(OC)c1,6,?,-1%,8%,29,?,0.9
O=C(CN(Cc1ccccc1)C(=O)c1ccc2c(c1)OCCO2)NCc1ccc2c(c1)OCO2,7,-16%,-4%,-11%,-4,-0.4%,1.6

(continued)
SMILES,CtBP-E1A blk,gsp agonist,gsp antag,Sfp inh,TRPV1 potentiator,ClpP mod,Menin-MLL FL inh
COC(=O)CNC(=O)/C=C/c1cc(Br)ccc1OC,3,?,-2%,8%,-11,/,0.6
N/C(=N\OC(=O)c1cccs1)c1ccccc1,3,15%,10%,-3%,0,/,2.3
COc1ccc(OCCCC(=O)NNC(=O)CCN2CCN(c3ccccc3)CC2)cc1,8,0%,?,9%,-1,0.6%,0.2
O=C(NC(=S)Nc1ccc2[nH]c(=O)[nH]c2c1)c1ccccc1Cl,6,-11%,8%,2%,?,0.9%,/
COC(=O)c1c(C)[nH]c(C)c1-c1cccc([N+](=O)[O-])c1,-4,-5%[15.4 µM],/,9%,14,/,2.4
COC(=O)c1ccc2c(c1)C(C)(C)C(/C=C/c1ccc(OC)c(OC)c1OC)=[N+]2C,-3,?,-4%,18µM*,-2,?,-1.2
COc1ccc(C2=CSC3=NCCN23)cc1OC,/,-43%[inhibitor],5%,16%,15,-3.3%,1.5
Cc1ccccc1OCC(=O)OCC(=O)NC1CC1,-9,-27%,-7%,/,0,-0.9%,/
CCCCCCNC(=O)CC(c1ccccc1)c1cc(Br)ccc1O (configuration not stated),-1,?,?,28%,11,-1.5%,1.3
